# Bioassay records (PubChem BioAssay)
# MgrA DNA FP = S. aureus MgrA-DNA binding modulation. AID 602314. 84,000 tested, 0.13% active. inhibition, %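 (about 10 µg/mL by stock and volumes)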. fluorescence polarization;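 active = above 50% in either of two replicates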;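 also: 0% = protein plus DNA without compound and 100% = DNA alone without protein; higher means less MgrA bound to DNA so lower polarization; one replicate is shown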
# S aureus helic = blocks Staphylococcus aureus DNA helicase. purified S. aureus helicase, fluorescence unwinding assay; about half of the hits fall short of the stated cut. 120,000 tested, 0.05% active. inhibition, %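 (tested at about 80 µM)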;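 active = both duplicates at 50% or more, or one of them with a favoured structure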;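 also: 0% = mean of negative control wells and 100% = mean of positive control wells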
# * hit, by the source's call; / = not tested or not shown.
SMILES | MgrA DNA FP | S aureus helic
CCOC(=O)c1ccoc1CN1CCN(C/C=C/c2ccccc2)CC1 | / | -2
CCCn1c(NC(=O)c2ccccc2)nc2ccccc21 | / | 33
CSc1ccc(Cl)c(C(=O)OCC(=O)NCc2ccccc2)c1 | -1.5 | -9
COc1ccccc1NC(=O)c1ccc(C(C)(C)C)cc1 | 0.1 | 3
CC1C(=O)NN=C1C(=O)N/N=C/c1ccc(OC(=O)c2ccco2)cc1 (configuration not stated) | / | -2
O=C1c2cccnc2C(=O)N1Cc1ccc(S(=O)(=O)N2CCc3ccccc32)cc1 | -1.9 | 10
COc1ccccc1N1CCN(C(=O)c2sc3nc(-c4ccc(F)cc4)cn3c2C)CC1 | / | 11
Cc1ccc(Nc2nc3ccccc3o2)cc1F | / | 11

# Entries shown so far that have fluorine:
SMILES | MgrA DNA FP | S aureus helic
COc1ccccc1N1CCN(C(=O)c2sc3nc(-c4ccc(F)cc4)cn3c2C)CC1 | / | 11
Cc1ccc(Nc2nc3ccccc3o2)cc1F | / | 11

# Going on with the list:
SMILES | MgrA DNA FP | S aureus helic
C=CCN1C(=O)CN=C1NCc1ccccc1 | 0.2 | 8
CC(=O)N(C)c1ccc(N=Cc2ccc[nH]2)cc1 | 1.1 | -4
CC1CCC(=NNC(=O)Cc2ccccc2)CC1 (configuration not stated) | / | -8
O=C(Cc1ccc2ccccc2n1)C(F)(F)F | -11 | 1
CCCNC(=O)c1cnn2c(C)c(Cc3ccc(F)cc3)c(C)nc12 | / | 7
CC(C)C(NS(=O)(=O)c1cccc2nsnc12)C(=O)N1CCn2c1nc1ccccc12 (configuration not stated) | / | 9
COC(=O)C1=C(CNc2ccc(I)cc2)NC(=O)NC1c1cc(C)ccc1C (configuration not stated) | 4.9 | 13
CC(C(=O)C12CC3CC(CC(C3)C1)C2)N1CCCC1 (configuration not stated) | / | -3

# Given as labelled records: entries from further up
C=CCN1C(=O)CN=C1NCc1ccccc1
  MgrA DNA FP: 0.2
  S aureus helic: 8

O=C(Cc1ccc2ccccc2n1)C(F)(F)F
  MgrA DNA FP: -11
  S aureus helic: 1

CC(C(=O)C12CC3CC(CC(C3)C1)C2)N1CCCC1 (configuration not stated)
  MgrA DNA FP: /
  S aureus helic: -3

# The listing continues:
SMILES | MgrA DNA FP | S aureus helic
Cn1cccc1/C=C/C(=O)OCC(=O)NC1(C#N)CCCCC1 | / | -5
CCN(CC)C(=O)c1ccc2nc(NC(=O)c3ccc(OC(C)=O)cc3)sc2c1 | / | 15
CCC(Oc1ccccc1)c1nc(-c2ccccc2)no1 (configuration not stated) | / | 1
COc1cc(OC)c(Br)cc1Br | 2.8 | /
CCOC(=O)CN1CSC2=C(C#N)C(c3ccc(Cl)cc3)CC(=O)N2C1 (configuration not stated) | 1.4 | 10
Cc1nc(C(=O)Oc2ccc(Cl)cc2)sc1C(=O)Oc1ccc(Cl)cc1 | 3.6 | /
CCOc1ccc(C(=O)C(C)Sc2nc(C)cc(=O)[nH]2)cc1 (configuration not stated) | / | 2
CN1CCCCC/C1=N/c1nc(-c2ccccc2)cs1 | / | 11
COC(=O)c1ccc(CC2(Cc3ccc(C(=O)OC)o3)C(=O)N(C)C(=O)N(C)C2=O)o1 | / | -3
CCN(CC)CCNCc1ccc(-c2ccccc2)o1 | -2.6 | 14
C=CCSc1nnc(-c2nnc(SCC=C)n2CC)n1CC | / | -23
CC(C)(C)C(=O)O/N=C/c1ccc2c(c1)OCO2 | / | -18
COC(=O)C1CCN(C(=O)c2ccc(NC(C)=O)cc2)CC1 | 1.5 | 10
CCNC1CC(N)C(OC2OC(CN)=CCC2N)C(O)C1OC1OCC(C)(O)C(NC)C1O (configuration not stated) | -2.8 | /
O=C(c1cc(Br)cc2c1OCC2)N1CCOCC1 | 1.2 | /
CCN1CCN(c2nc3ccccc3nc2C(C#N)C(=O)OCc2ccccc2)CC1 (configuration not stated) | / | 6

# Compounds listed so far with a cyano group (3):
SMILES | MgrA DNA FP | S aureus helic
Cn1cccc1/C=C/C(=O)OCC(=O)NC1(C#N)CCCCC1 | / | -5
CCOC(=O)CN1CSC2=C(C#N)C(c3ccc(Cl)cc3)CC(=O)N2C1 (configuration not stated) | 1.4 | 10
CCN1CCN(c2nc3ccccc3nc2C(C#N)C(=O)OCc2ccccc2)CC1 (configuration not stated) | / | 6

# (more compounds)
SMILES | MgrA DNA FP | S aureus helic
O=C(COC(=O)c1ccc(CO)cc1)c1ccc(OC(F)F)cc1 | / | -8
COC(=O)c1cc2c(N)c(C(=O)OC)sc2nc1C(OC)OC | 0.0 | /
CCOC(=O)c1cnc2ccc(Cl)cc2c1-c1ccccc1 | 1.1 | /
COc1ccc(C2=NN(C(C)=O)C(c3ccc(Br)cc3)C2)cc1 (configuration not stated) | 3.4 | /
Cc1ccc(-n2c(N)c(C#N)c3nc4ccccc4nc32)c(C)c1 | -0.9 | -29
CCCN(Cc1nnc(-c2ccco2)o1)C(=O)c1ccccc1SCC(=O)Nc1ccc(F)cc1 | / | -12
CC(=O)Nc1ccc(C2Nc3ccccc3-c3nc4ccccc4n32)cc1 (configuration not stated) | / | 18
CN(C)C(=O)CN1CCC(N2CCCCC2)CC1 | 15 | 0
Cc1ccc(NC(=O)NNc2ccc(S(=O)(=O)N3CCCCC3)cn2)cc1 | / | -1
CCOC(=O)CC1(C)NNC(=S)NN1 | 5.0 | 7
COc1ccc(OC)c(S(=O)(=O)N2CCC(C(=O)NCCC3=CCCCC3)CC2)c1 | -0.9 | -1
Clc1nsnc1N1CCOCC1 | 0.5 | 10
CCOC(=O)c1c(NC(=S)NC(=O)c2c(I)cnn2C)sc2c1CCC(C)C2 (configuration not stated) | 0.0 | 9
NC1CCN(C(=O)NC2CCCCC2)CC1 | -4.8 | -2
CCc1ccc(NC(=O)c2cccc(NC3=NC4CS(=O)(=O)CC4S3)c2)cc1 (configuration not stated) | / | 3
O=C(CSc1nnc(Cc2ccccc2)n1Cc1ccccc1)N1CCCC1 | -0.2 | 7
CC1CCN(CCCNC(=O)Cc2c(C(=O)O)n(C)c3ccccc23)CC1 | / | 1
C/C(=N\NC(=O)CNc1cccc(C(F)(F)F)c1)C1CC1 | / | 1
COC(=O)Cc1cc(=O)[nH]c(SCC2CCCCO2)n1 (configuration not stated) | / | -11
O=C(NCc1ccccc1)N(Cc1cccnc1)Cc1cc2cc3c(cc2[nH]c1=O)OCCO3 | 0.8 | 3
COc1ccc(Cl)cc1-c1nc(SCC(=O)N2C(C)CCCC2C)n[nH]1 (configuration not stated) | / | -7
O=C(CNC(=O)c1ccc(C(F)(F)F)cc1)NC1CC1 | / | -2
COc1ccc(Cl)cc1N=Cc1ccc2ncccc2c1 | 0.5 | -22
Cc1c(NC(=O)/C=C/c2ccc(Cl)cc2Cl)c(=O)n(-c2ccccc2)n1C | -1.6 | 0
O=C(c1cc(NS(=O)(=O)c2cccs2)cc(NS(=O)(=O)c2cccs2)c1)N1CCCCC1 | / | 4
C=CCNC(=O)c1cc(-c2cccs2)nc2ccccc12 | -0.7 | 3
CCCCC1CCC(C(=O)OCC(=O)c2ccc(Br)cc2)CC1 (configuration not stated) | 2.6 | 7
O=C1CC2Sc3ccccc3N=C2N1Cc1ccccn1 (configuration not stated) | -1.4 | /
CCOC(=O)c1cnc(C)[nH]c1=O | -2.6 | /
O=C(O)CCC(=O)Nc1ccc(Br)cn1 | / | -14
CN1CCC(NC(=O)C2CCCO2)CC1 (configuration not stated) | -1.9 | 0
CCOC(=O)CSc1nc2ccc(Br)cc2c2nc3ccccc3n12 | -0.1 | 5
O=C(Cn1nnc(-c2ccccc2)n1)N1CCc2ccccc21 | / | 16
O=C1c2c(-c3ccc(Cl)cc3)csc2NC2CCCN12 (configuration not stated) | / | -3
N#C/C(N)=C(\C#N)N=Cc1ccc(C(F)(F)F)cc1 | 1.2 | /
NC(=NCCc1ccccc1)Nc1nc2ccccc2[nH]1 | -0.8 | -2
NC1=NC(=O)/C(=C/c2ccc(-c3cc([N+](=O)[O-])ccc3Cl)o2)S1 | 4.4 | /
O=C(NCCc1ccc(Cl)cc1)c1ccc(CS(=O)c2ccc(Cl)cc2)o1 (configuration not stated) | 10 | 14
COC(=O)c1cc2ccccc2nc1-c1ccc(F)cc1 | 0.1 | -15
CC(C)Sc1nnnn1-c1ccccc1 | / | -32
CCc1ccc(Nc2nnc(SCC(=O)NC3(C#N)CCCC3)s2)cc1 | / | -6
C/C(=N\NC1=NCCN1Cc1ccccc1)c1ccc(Cl)cc1 | 1.5 | /
CN=C(Nc1ccc(OC)cc1)c1ccccc1 | / | 3
Clc1ccccc1N1CCN(Cc2ccsc2)CC1 | -3.0 | /
CCn1c(SCC2CCCCO2)nnc1-c1cccs1 (configuration not stated) | / | -2
Cc1[nH]n(-c2ccccc2)c(=O)c1C1=c2ccccc2=NC1=O | 41 | 3
Cn1ccnc1C(=O)c1cc(Sc2nnnn2-c2ccccc2)nc2ccccc12 | / | -7
Cc1ccc(C(=O)OCC(=O)NC2CC2)cc1S(=O)(=O)N1CCOCC1 | / | -1
COc1ccc(Cn2c(=O)oc3ccccc32)cc1 | 0.3 | 4
CC(C)NC(=O)CCc1nc2ccccc2c(=O)[nH]1 | / | 9
Cc1cc(O)c(C(=O)c2ccccc2)c(=O)o1 | / | 18
CCOc1ccc2nc(SCC(=O)NCC3CCCO3)c(C#N)cc2c1 (configuration not stated) | -1.5 | 7
CCSc1sccc1C1C(C#N)=C(N)N(c2cccnc2)C2=C1C(=O)CCC2 (configuration not stated) | / | -28
COc1ccc(-n2cc(C#N)c(=O)n(Cc3ccccc3)c2=O)cc1 | / | -19
CCOC(=O)c1cc(NC(=O)c2ccccc2)c(=O)oc1C(F)(F)F | -0.3 | 12
COc1ccc(CCCc2nnc(SCC(=O)NN)o2)c(C)c1 | / | -23

# Next part
SMILES | MgrA DNA FP | S aureus helic
N#C/C(=C\c1ccc2c(c1)OCO2)c1cccs1 | -2.3 | /
[S-]c1n[n+]2cccnc2s1 | / | -14
Cc1ccc2c(CC(=O)OCc3nc(N)nc(Nc4ccccc4C)n3)coc2c1 | / | -15
NS(=O)(=O)c1ccc(NC(=O)NCC2CCCC(CNC(=O)Nc3ccc(S(N)(=O)=O)cc3)C2)cc1 (configuration not stated) | / | -17
CCOC(=O)Cc1nnc(NC(=O)C(CC)Sc2nnc3c4ccccc4n(C)c3n2)s1 (configuration not stated) | -1.3 | 17
CC1C/C(=C/c2cccnc2)C(=O)/C(=C/c2cccnc2)C1 (configuration not stated) | / | 23
O=C(CSC(=S)N1CCSCC1)c1ccc(Cl)cc1 | -1.4 | /
CSc1ccc(/C=N/OCc2ncc(-c3ccccc3)o2)cc1 | / | 5
COc1cc(S(=O)(=O)n2cnc3cc(C)c(C)cc32)c(C)cc1C | / | 20
CCOc1ccc(S(=O)(=O)NCCC(=O)NC2=NCCS2)cc1 | / | -9
CCC1(C(=O)c2ccccc2)C2c3cc(Br)ccc3OC(=O)C21C(=O)c1ccco1 (configuration not stated) | 0.2 | 6
CC(=O)Nc1cnn(-c2ccccc2)c(=O)c1Cl | 0.7 | 8
COc1ccc(NC(=O)C(C)n2sc3ccccc3c2=O)c(OC)c1 (configuration not stated) | / | 2
O=C(Cn1c(=O)c2ccccc2n2nncc12)Nc1ccccc1 | / | 7
O=C(CNC(=O)c1ccc(Cl)cc1)c1ccc(Cl)cc1 | 0.3 | /
O=C(Cn1cnc2c(cnn2-c2ccccc2)c1=O)N1CCCc2ccccc21 | -1.8 | 12
CC(C)c1nnc(NC(=O)Cc2ccccc2)s1 | / | -10
CCCOc1ccc(C(=O)O)cc1 | -2.5 | -2
COCCCN1CNC(=S)NC1 | -2.0 | /
CC(C)NC(=O)CCn1nc(-c2ccc(Cl)cc2)c2ccccc2c1=O | / | 7
Cc1ccc(C2=NC3(CCCCC3)NC2=O)cc1 | / | -32
Oc1ccccc1Oc1c(F)c(F)nc(F)c1Cl | / | 22
O=C(Nc1cccc(Cl)c1)Nc1cccc(Cl)c1 | -2.3 | /
O=C(Nc1cc(C(F)(F)F)cc(C(F)(F)F)c1)C(c1ccccc1)C1CCCC1 (configuration not stated) | -2.5 | /
CNC(=S)N(Cc1cc2cc(OC)ccc2[nH]c1=O)CC1CCCO1 (configuration not stated) | 4.7 | 9
O=C(OCc1ccc(F)cc1)C1=NN(c2ccccc2)C(=O)CC1 | / | 16
COc1ccc(/C=C2/SC(=O)N(CNc3ccc(OC)c(Cl)c3)C2=O)cc1 | -1.2 | /
Cc1ccc(-c2[nH]c3ccccc3c2SCCNC(=O)c2ccncc2)cc1 | 0.7 | 8
CCc1nn(CC(=O)NC2CCCC(C)C2C)c(=O)c2cc3sc(C)cc3n12 (configuration not stated) | / | 12
O=C1c2ccccc2S(=O)(=O)N1CC1CC1 | -1.4 | /
Cc1csc(N(C(=O)CSc2nnc(C)n2-c2ccccc2)c2ccccc2)n1 | / | -3
O=C(NC1CCCC1)c1cc(NS(=O)(=O)c2ccc(F)cc2)ccn1 | / | -25
Cc1c(CC(=O)NN)sc2ccc(Cl)cc12 | 2.1 | /
Cn1cnnc1Sc1nc2c(c(=O)n(C)c(=O)n2C)n1Cc1ccc(F)cc1 | -0.6 | /
CC1COc2c(N3CCN(C)CC3)c(F)cc3c(=O)c(C(=O)OCc4ccccn4)cn1c23 (configuration not stated) | / | 11
CC1=CC(C)C(COC(=O)CN2CCCC2)C(C)C1 (configuration not stated) | / | 12
O=C1c2ccccc2C(=O)C1c1cccc2ccccc12 | 3.7 | /
CC12CCC(=O)N1C(C(=O)OCc1cc(=O)n3ccsc3n1)CS2 (configuration not stated) | / | 31
O=C(O)c1ccccc1SCc1cc(=O)n2nc(-c3ccco3)sc2n1 | / | 0
CS(=O)(=O)N1CCCc2cc(C(=O)N3CCN(Cc4ccccc4)CC3)ccc21 | / | 5
Cc1cc(=O)n2[nH]cc(-c3ccccc3)c2n1 | / | 9
CC(C)=C(/C(C)=N/O)c1ccc(N(C)C)cc1 | -2.3 | /
Cc1ccc(CNC(=O)c2cc(=O)[nH]c3ccccc23)n1C | / | -12

# A portion of the library; rates above refer to the full screens.
